High-throughput results (PubChem)
YopH PTP inh = blocks Yersinia enterocolitica YopH tyrosine phosphatase; fluorescence Ex485/Em525; inhibition, %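 (about 10 µM by stock and volumes)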; hit rate 0.16% among 140,000; AID 898;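 active means inhibition of 50% or more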;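 further: controls were vehicle for no effect and minimum signal wells for full effect; inactives centre near -20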
Mtb growth = M. tuberculosis H37Rv growth inhibitors, H37Rv strain (AID 1626); M. tuberculosis H37Rv growth inhibition; higher % means a stronger effect; inhibition, % at 10 µM, or IC50 in µM where a hit was titrated; hit rate 0.95% among 220,000;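 active means confirmed in a dose series; inconclusive means inhibition above 80% but not taken into the dose series; inactive means below 80% or under 30% at every dose of the series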;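 further: bacteria incubated seven days before Alamar blue readout; 0% = bacteria only wells and 100% = bacteria with antibiotic wells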
Mtb bLac sens = beta-lactam sensitization of Mtb H37Rv; inhibition, % at 25 µM; hit rate 0.27% among 330,000; M. tuberculosis H37Rv growth with meropenem, percent inhibition; hits of this screen are not shown here; AID 434955;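 active means about 74% or more and at least 40 points above the plate without the antibiotic, then above 30% in a dose series; inconclusive means first-round hits that could not be retested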;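 further: growth measured after seven days incubation then overnight dye step; 0% = bacteria only wells and 100% = bacteria with antibiotic; twin plates without the antibiotic show which effects depend on it; some results filed as inactive read as strong as hits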
RecA splice inh = inhibitors of M. tuberculosis RecA intein splicing; hit rate 0.75% among 290,000; inhibition, %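 (about 9 µM by stock and volumes)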; AID 2221; cell-free RecA intein splicing, fluorescence; in the data active means inhibition above about 30%; inconclusive means no clear call, values can overlap the other calls;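 further: 0% = vehicle wells and 100% = reference inhibitor control wells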
Target sequence (P9WHJ3 whole entry, looked up, canonical isoform): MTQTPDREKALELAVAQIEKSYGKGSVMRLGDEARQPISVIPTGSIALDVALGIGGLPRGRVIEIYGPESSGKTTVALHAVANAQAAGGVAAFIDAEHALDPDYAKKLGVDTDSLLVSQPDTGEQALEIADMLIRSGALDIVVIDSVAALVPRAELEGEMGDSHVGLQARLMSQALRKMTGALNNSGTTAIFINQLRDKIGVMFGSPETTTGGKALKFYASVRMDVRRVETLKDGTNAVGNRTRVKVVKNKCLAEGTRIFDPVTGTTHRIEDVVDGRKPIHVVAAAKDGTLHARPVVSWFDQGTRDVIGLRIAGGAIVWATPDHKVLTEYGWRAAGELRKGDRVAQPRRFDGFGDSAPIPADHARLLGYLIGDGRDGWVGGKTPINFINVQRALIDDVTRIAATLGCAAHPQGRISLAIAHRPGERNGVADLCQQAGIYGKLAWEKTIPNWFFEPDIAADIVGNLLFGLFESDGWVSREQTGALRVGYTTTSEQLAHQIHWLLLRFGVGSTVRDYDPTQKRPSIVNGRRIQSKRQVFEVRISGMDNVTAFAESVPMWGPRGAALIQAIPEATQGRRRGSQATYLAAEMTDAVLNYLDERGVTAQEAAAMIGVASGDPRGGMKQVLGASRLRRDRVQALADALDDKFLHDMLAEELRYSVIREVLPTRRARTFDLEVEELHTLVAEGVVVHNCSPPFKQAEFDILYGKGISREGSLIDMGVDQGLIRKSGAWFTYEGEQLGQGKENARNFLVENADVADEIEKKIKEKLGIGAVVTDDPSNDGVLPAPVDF
Arbovirus anti = blocks arbovirus infection; arbovirus infection cell-based antiviral screen; AID 1251; inhibition, % at 10 µM; hit rate 0.37% among 200,000;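 active means inhibition from about 30%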;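 further: bluetongue infection of BSR cells; cell survival read as ATP light after 72 h; 0% = infected wells without compound and 100% = uninfected wells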
Arbovirus anti repeat = second read-out of Arbovirus anti, no call of its own (marks repeat the call); inhibition, %; measured here: 10K subset replicate screen; many hits read low in the repeat;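 first of two repeat runs on a subset; 0% = infected and 100% = uninfected wells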
Starred values were filed as active, the others as inactive; ? = inconclusive; / = not tested or not shown. Not all compounds are listed; the hit share may differ from the screen's.

SMILES	YopH PTP inh	Mtb growth	Mtb bLac sens	RecA splice inh	Arbovirus anti	others
COc1cccc(C(=O)NC2CC3CCCC(C2)N3CC(=O)Nc2ccccc2C(F)(F)F)c1 (stereo not drawn)	/	/	18	4.9	/
Cc1cc(C2(c3ccc(O)c(C)c3)C(=O)N(C)c3ccc(Br)cc32)ccc1O	/	/	7	24	/
O=C(CCC1CCCC1)N1CCC(N2CCN(c3ccccc3)CC2)CC1	-28	-6%	-17	0.2	-8
CC(C)CCNC(=O)CN(C(=O)Cn1nnc(-c2ccccc2F)n1)c1cccc2c1CCCC2	-27	-3%	5	-3.7	-26
Cc1ccc(/C=C2\S/C(=N/S(=O)(=O)c3cccs3)NC2=O)cc1	/	2%	-16	7.3	/
Cc1ccc(NC(=O)CN2C(=O)CSC2=O)cc1	4	4%	-1	1.4	3
NC(=O)c1sc2nc(-c3cccnc3)ccc2c1N	/	-5%	-5	-4.8	/
COCCCNC(=S)N1CCN(c2ccccc2)CC1	/	0%	-8	-0.3	1
O=C1c2ccccc2S(=O)(=O)N1CC1CC(c2ccccc2)=NO1 (stereo not drawn)	2	-14%	-13	0.3	2
COc1ccc2oc(=O)c(C(=O)N3CCN(c4ccccc4)CC3)cc2c1	-43	-2%	-1	-14	1
COCCNC(=O)C(c1ccc(F)cc1)N(Cc1ccccc1)C(=O)CCC(=O)Nc1nccs1 (stereo not drawn)	/	/	2	1.1	/
COc1ccccc1C(=O)COC(=O)C(CCSC)NC(=O)COc1ccccc1 (stereo not drawn)	/	/	-6	-1.2	/
CCCCCCC(=O)Nc1nc(C)c(-c2csc(Nc3cc(OC)ccc3OC)n2)s1	-18	1%	29	-1.9	-16
Cc1cccc(NC(=O)c2ccco2)c1C(=O)O	/	-6%	2	1.3	/
COC(=O)c1ccsc1NC(=O)CSc1nnnn1-c1ccccc1SC	-29	-6%	3	2.6	-13
COc1ccc(-c2nnc3n(CCc4ccccc4)c(=O)c4ccccc4n23)cc1OC	-15	13%	-8	-3.9	-4
CC(=O)Nc1ccc(S(=O)(=O)NNC(=O)c2cccc([N+](=O)[O-])c2)cc1	/	/	2	-1.2	/
CC(C)(C)C(=O)NC(=S)NNC(=O)c1ccc(-c2ccccc2)cc1	/	?	98	21	-18
Cc1cc2ccccc2n1CCNC(=O)Cc1cccc2ccccc12	-46	6%	-10	-4.7	7
N#CCCn1c(SCC(=O)N2CCN(S(=O)(=O)c3ccccc3)CC2)nc2ccccc21	-27	-9%	-17	1.0	-1
CCCCn1c(=O)[nH]c(=O)c2c1nc(-c1ccc(OCCC)c(OCC)c1)n2C	/	-10%	-3	0.1	/
Cc1oc(-c2cccs2)nc1CN1CCN(CCC(C)C)C(CCO)C1 (stereo not drawn)	/	-7%	-4	-5.4	-5
COC(=O)c1sccc1NC(=O)c1ccc(C(C)C)cc1	/	/	38	5.2	/
CC1CCCN(CCCNC(=O)c2ccc(NC(=O)C3=CSCCO3)cc2)C1 (stereo not drawn)	/	/	1	-9.8	/
O=C(O)c1cccc(COCC(F)(F)C(F)F)c1	13	0%	-15	-0.3	6
SMILES	YopH PTP inh	Mtb growth	Mtb bLac sens	RecA splice inh	Arbovirus anti	others
COCC1CCCCN1Cc1cn[nH]c1-c1ccc2cc(OC)ccc2c1 (stereo not drawn)	/	-9%	-1	4.2	-3
CC1(C)Cc2nc3sc(C(=O)NCCCO)c(N)c3cc2CO1	/	-7%	2	/	/
O=C(NC(=S)N(Cc1ccccc1)c1ccccn1)C1CCCCC1	-40	7%	-8	1.1	-4
Cc1cccc[n+]1C1C(c2ccc([N+](=O)[O-])cc2)C(C#N)=C(C(=C=[N-])C#N)NC1(O)C1CC1 (stereo not drawn)	/	/	-3	-3.1	-1
O=C(NCc1ccc2c(c1)OCO2)C1CCN(Cc2cnn(-c3ccccc3)c2-n2cccc2)CC1	-5	12%	67	-0.9	-18
Cc1ccc(-c2nnc(N(C)C(=O)c3cccnc3)s2)cc1	-18	7%	2	1.5	4
O=c1c2[nH]c3ccc(F)cc3c2nc2n1CCCS2	/	-7%	-8	1.4	7
O=C(O)/C=C/c1cn(-c2ccccc2)nc1-c1ccccc1	/	/	2	-1.5	/
COc1ccc(/C=C2\Oc3cc(OC(=O)N4CCOCC4)ccc3C2=O)cc1	/	-10%	-1	-2.5	/
O=C(CSc1nnnn1C1CCCC1)N1CCN(C(=O)c2ccco2)CC1	-40	0%	8	-0.7	-1
Cc1[nH]c2ccccc2c1C(C[N+](=O)[O-])c1cccc(O)c1 (stereo not drawn)	/	7%	12	5.3	9
COc1ccc(C(O)P(=O)(OCc2ccccc2)c2ccc(N(C)C)cc2)cc1 (stereo not drawn)	/	-3%	-5	-3.3	/
Cc1ccccc1CN1[C@@H](Cc2ccccc2)COCCS1(=O)=O	/	-2%	-14	4.2	/
O=C(CCn1c(=S)[nH]c2ccccc2c1=O)N1CCCCC1	/	/	-7	-8.7	/
CCN(CCO)c1ccc(N=Cc2c(O)n(C)c(=S)[nH]c2=O)cc1	/	7%	1	-5.5	/
CN1CCN(C(=O)C23CC4CC(C)(CC(C)(C4)C2)C3)CC1	/	-9%	5	/	/
COc1cc(/C=N\NC(=O)c2ccc(C)nc2)ccc1OC(=O)c1ccc2c(c1)OCO2	/	5%	14	-1.4	0
CC(=O)Nc1c(O)nc(C)[nH]c1=O	/	-4%	1	2.5	/
CCC(C)c1ccccc1N1CC(C(=O)Nc2cc(S(=O)(=O)N3CCOCC3)ccc2OC)CC1=O (stereo not drawn)	/	/	1	3.7	/
O=C(/C=C/c1cccc(Cl)c1)c1ccc([N+](=O)[O-])o1	/	/	100	0.9	/
CC(C)OCCCNC(=O)Cc1ccc(F)cc1	/	4%	2	3.9	0
O=C(CC(c1ccccc1)c1ccccc1)Nc1ccncc1	/	6%	-1	1.3	/
O=S(=O)(c1ccc(Cl)cc1)N1CCNCC1	/	10%	-5	-3.2	0
COc1ccc(-n2c(SCC#N)nnc2-c2ccc(NS(=O)(=O)c3ccc(C)cc3)cc2)cc1	-29	-11%	-4	11	-26
COCCSc1nnc(NC(=O)c2ccco2)s1	/	/	-3	0.8	/

Molecules from the list above with a Cl atom (two):
SMILES	YopH PTP inh	Mtb growth	Mtb bLac sens	RecA splice inh	Arbovirus anti	others
O=C(/C=C/c1cccc(Cl)c1)c1ccc([N+](=O)[O-])o1	/	/	100	0.9	/
O=S(=O)(c1ccc(Cl)cc1)N1CCNCC1	/	10%	-5	-3.2	0

A stretch of the results above:
SMILES	YopH PTP inh	Mtb growth	Mtb bLac sens	RecA splice inh	Arbovirus anti	others
COc1ccc(-n2c(SCC#N)nnc2-c2ccc(NS(=O)(=O)c3ccc(C)cc3)cc2)cc1	-29	-11%	-4	11	-26
COCCSc1nnc(NC(=O)c2ccco2)s1	/	/	-3	0.8	/

Other structures.
SMILES	YopH PTP inh	Mtb growth	Mtb bLac sens	RecA splice inh	Arbovirus anti	others
C=CCn1c(=O)/c(=C/c2cc(OC)c(OC)c(OC)c2)s/c1=C(/C#N)c1nc2ccccc2n1C	-54	8%	-6	-0.7	-4	Arbovirus anti repeat=-5
C/C(=N\NC(=O)c1cc(-c2cccc([N+](=O)[O-])c2)n[nH]1)c1ccccc1O	-23	-6%	-1	-0.5	-33
COc1ccc2nc(C)c3c(c2c1)OC(C)C3 (stereo not drawn)	-41	-3%	-7	2.6	3
CCSc1nnc(CNC(=O)c2ccccc2F)n1-c1ccccc1OC	/	5%	2	-1.3	-1
O=C(Nc1ccc(S(=O)(=O)C(F)F)cc1)c1ccc2c(=O)n3c(nc2c1)CCC3	/	/	-3	3.2	/
Cc1ccc(-c2cc(-c3ccccc3C)[nH]n2)c(O)c1	-7	57%	98	16	-38
COc1cccc(-c2nnc(NC(=O)c3ccc(Cl)s3)o2)c1	-31	/	95	-0.5	-17
Cc1cccc(C)c1OCC(O)CN1CCc2ccccc2C1 (stereo not drawn)	/	/	-2	2.4	/
O=C(O)c1cccc(-n2c(/C=C/c3ccccc3)nc3ccccc3c2=O)c1	/	/	6	1.8	/
COc1ccc(N(CC(=O)Nc2ccc3c(c2)OCO3)S(=O)(=O)c2ccccc2)cc1	/	0%	-10	2.0	-18
O=C(Nc1cc(Cl)ccc1Cl)C1Cc2ccccc2O/C1=N\O (stereo not drawn)	/	/	42	1.0	/
Cc1cccc(C(=O)NC2CC3CCCC(C2)N3C(=O)Nc2ccccc2)c1 (stereo not drawn)	/	/	-1	0.2	/
COc1ccc(-c2csc(-c3ccc(O)cc3)n2)cc1	/	7%	63	12	/
Cc1ccccc1Nc1cc(=O)oc2ccccc12	4	-8%	-14	1.0	0
Cc1cccc(N2CCN(CC(O)COCc3cccs3)CC2)c1C (stereo not drawn)	-8	-7%	3	0.2	-25
O=C(CCCCCNC(=O)N1CCn2c1nc1ccccc12)NCc1ccc(Cl)cc1	/	/	7	-0.8	/
NC(=O)c1c(NC(=O)c2ccc(F)cc2Cl)sc2c1CCC2	/	/	-1	-2.3	/
COc1ccc(CN2C(=O)c3cccnc3C2=O)cc1S(=O)(=O)N1CCCC(C)C1 (stereo not drawn)	/	/	2	1.1	/
CCN(CC)CCCN=C(C)C1=C(O)c2ccccc2C1=O	/	-8%	1	/	/
O=C(c1ccccc1)N1CCN(c2n[nH]c(=O)[nH]c2=O)CC1	/	6%	-1	0.5	8
Cc1ccc(N2C(=O)c3cccc4c(C(=O)O)ccc(c34)C2=O)cc1	/	-2%	-1	1.0	15
CCC(C)c1ccc(NC(=O)c2c([N+](=O)[O-])cnn2CC)cc1 (stereo not drawn)	/	/	98	4.4	/
c1ccc(-c2ccccc2OCCCN2CCCCCC2)cc1	/	13%	4	6.1	12
COC(=O)Cn1c(C)nc(=O)c(-c2ccccc2)c1C	-31	-4%	4	0.4	1
Cc1cc(C)c(C(=O)Nc2ccc(S(=O)(=O)Nc3onc(C)c3C)cc2)c(C)c1	-23	15%	-7	/	-1	Arbovirus anti repeat=-3
SMILES	YopH PTP inh	Mtb growth	Mtb bLac sens	RecA splice inh	Arbovirus anti	others
CCc1cc(=O)oc2cc(OCC(=O)NCc3ccccn3)ccc12	/	/	3	-1.9	/
Cc1cc(SCC(=O)Nc2ncc(Cl)cc2Cl)nc2ccccc12	-14	2%	5	2.1	2
COCCn1c(N)c(C(=S)NC(=O)c2cccs2)c(=O)[nH]c1=O	/	11%	-4	-2.2	/
CN(C)c1ccc(NC(=O)N2CCOCC2)cc1	-15	-4%	-3	-3.6	-6
COc1ccc(N2CCN(C(=O)c3ccc(Cn4c(=S)[nH]c5ccc(N6CCOCC6)cc5c4=O)cc3)CC2)cc1	/	13%	7	-2.9	-10
C=CC(=O)Oc1ccc(N2Cc3ccccc3C2=O)cc1	/	/	-11	2.6	/
Cn1c(SCC2CCCO2)nnc1-c1ccc([N+](=O)[O-])cc1 (stereo not drawn)	/	-9%	-1	-1.8	5
Cc1cccc(NC(=O)N2CCCc3ccccc32)c1C	/	/	-3	1.8	/
CCCOC(=O)Nc1ccc(S(=O)(=O)Nn2cnnc2)cc1	-20	-10%	-1	0.0	12
COc1ccc(NC(=O)c2cc(S(=O)(=O)Nc3ccc(OC)cc3)cs2)cc1	/	5%	-10	4.2	/
C=CCn1c(SCC(=O)NCCC2=CCCCC2)nc2ccc(Cl)cc2c1=O	-43	6%	4	3.5	-5
N#CC(C#N)=NNc1ccc(S(N)(=O)=O)cc1	/	-17%	-8	9.6	/
Cc1ccc(-c2ccc(=O)n(CCC(=O)N3CCN(c4cccc(C)c4)C(C)C3)n2)cc1 (stereo not drawn)	/	/	31	7.2	/
CCOc1ccc(C2C(C(=O)OC)=C(C)N=C3SCCC(=O)N32)cc1OCC (stereo not drawn)	1	-7%	-7	0.0	-3
CC1Cc2cc(/C(O)=C3/C(=O)C(=O)N(CCN4CCOCC4)C3c3ccc(C(C)C)cc3)ccc2O1 (stereo not drawn)	/	-19%	-8	0.1	/
COC(=O)C1=C(CSc2nncn2C)NC(=O)NC1c1ccc(F)cc1 (stereo not drawn)	-12	7%	-2	0.8	7
COc1ccccc1C(=O)COC(=O)CNS(=O)(=O)c1ccc(C)c(C)c1	/	/	-3	2.2	/
COc1ccc(-c2c(C)n([O-])c3c([n+]2=O)CCCC3)c(OC)c1	-13	-5%	9	-1.8	1
O=C(NCCCCO)C(F)(F)C(F)(F)C(F)(F)C(=O)NCCCCO	-33	-7%	-13	1.3	-3
CCN(C1CCS(=O)(=O)C1)S(=O)(=O)c1cccc([N+](=O)[O-])c1 (stereo not drawn)	/	0%	-2	-1.8	0
Cc1ccc([N+](=O)[O-])c(OCCN2CCC(Cc3ccccc3)CC2)c1	/	4%	1	-1.5	-27
COc1ccc(S(=O)(=O)N(CCC(=O)O)Cc2ccccc2)cc1	/	2%	-9	-3.4	2
COc1ccc(-c2cc(C)no2)cc1S(=O)(=O)Nc1ccc(NC(C)=O)cc1	/	/	-1	8.8	/
COc1ccc(CCN=Cc2ccc(O)cc2)cc1OC	/	/	5	-3.4	/
